Mtb growth: M. tuberculosis H37Rv growth inhibitors, H37Rv strain (AID 1626); 220,000 tested, 0.95% active; M. tuberculosis H37Rv growth inhibition; higher % means a stronger effect; inhibition, % at 10 µM, or IC50 in µM where a hit was titrated;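 active means confirmed in a dose series; inconclusive means inhibition above 80% but not taken into the dose series; inactive means below 80% or under 30% at every dose of the series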;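 further: bacteria incubated seven days before Alamar blue readout; 0% = bacteria only wells and 100% = bacteria with antibiotic wells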
YopH inh: inhibitors of Yersinia enterocolitica YopH tyrosine phosphatase; fluorescence Ex485/Em525; inhibition, %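 (about 10 µM by stock and volumes)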; 140,000 tested, 0.16% active;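 active means inhibition of 50% or more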;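 further: controls were vehicle for no effect and minimum signal wells for full effect; inactives centre near -20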
Arbovirus anti: arbovirus infection inhibition | arbovirus infection cell-based antiviral screen | inhibition, % at 10 µM | 200,000 tested, 0.37% active | AID 1251;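 active means inhibition from about 30%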;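 further: bluetongue infection of BSR cells; cell survival read as ATP light after 72 h; 0% = infected wells without compound and 100% = uninfected wells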
Mtb bLac sens: beta-lactam sensitization of Mtb H37Rv; AID 434955; M. tuberculosis H37Rv growth with meropenem, percent inhibition; hits of this screen are not shown here; 330,000 tested, 0.27% active; inhibition, % at 25 µM;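 active means about 74% or more and at least 40 points above the plate without the antibiotic, then above 30% in a dose series; inconclusive means first-round hits that could not be retested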;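 further: growth measured after seven days incubation then overnight dye step; 0% = bacteria only wells and 100% = bacteria with antibiotic; twin plates without the antibiotic show which effects depend on it; some results filed as inactive read as strong as hits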
RecA splice inh: blocks M. tuberculosis RecA intein splicing. 290,000 tested, 0.75% active. inhibition, %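 (about 9 µM by stock and volumes)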. cell-free RecA intein splicing, fluorescence. P9WHJ3; in the data active means inhibition above about 30%; inconclusive means no clear call, values can overlap the other calls;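 further: 0% = vehicle wells and 100% = reference inhibitor control wells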
Target sequence (P9WHJ3 whole entry, looked up, canonical isoform): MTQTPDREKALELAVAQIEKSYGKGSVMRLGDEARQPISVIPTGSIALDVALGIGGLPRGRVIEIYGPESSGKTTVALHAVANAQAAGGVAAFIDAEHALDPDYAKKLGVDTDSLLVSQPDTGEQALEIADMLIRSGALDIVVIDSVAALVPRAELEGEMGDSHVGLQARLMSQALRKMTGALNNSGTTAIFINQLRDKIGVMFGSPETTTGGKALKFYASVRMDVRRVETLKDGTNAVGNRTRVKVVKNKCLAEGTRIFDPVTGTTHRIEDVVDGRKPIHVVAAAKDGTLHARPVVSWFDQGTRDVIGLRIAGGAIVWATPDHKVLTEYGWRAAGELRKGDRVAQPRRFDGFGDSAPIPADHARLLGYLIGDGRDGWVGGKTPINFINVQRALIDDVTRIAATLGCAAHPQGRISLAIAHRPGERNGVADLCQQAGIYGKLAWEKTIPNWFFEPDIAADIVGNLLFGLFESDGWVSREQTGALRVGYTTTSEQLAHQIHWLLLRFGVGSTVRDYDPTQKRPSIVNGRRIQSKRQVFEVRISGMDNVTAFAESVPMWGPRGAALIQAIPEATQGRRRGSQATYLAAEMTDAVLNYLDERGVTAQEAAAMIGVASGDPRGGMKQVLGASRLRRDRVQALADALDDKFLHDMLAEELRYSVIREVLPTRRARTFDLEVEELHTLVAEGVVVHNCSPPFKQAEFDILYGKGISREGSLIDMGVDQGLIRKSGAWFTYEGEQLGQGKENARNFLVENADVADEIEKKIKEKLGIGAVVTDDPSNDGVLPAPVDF
Arbovirus anti repeat: further read-out of Arbovirus anti, marked with its call; inhibition, %; measured here: 10K subset replicate screen; many hits read low in the repeat;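 first of two repeat runs on a subset; 0% = infected and 100% = uninfected wells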
Starred values were filed as active, the others as inactive; ? = inconclusive; . = not tested or not shown. These rows are one share of the data. The share of hits here may be higher or lower than overall.

SMILES	Mtb growth	YopH inh	Arbovirus anti	Mtb bLac sens	RecA splice inh	others
COc1cccc(C(=O)OCCCOC(=O)c2cccc(OC)c2OC)c1OC	.	.	.	-12	-0.2
COCCNc1nnc(Cc2ccc(OC)c(OC)c2)c(=O)[nH]1	.	.	.	-1	-2.1
CCOc1ccccc1NC(=O)CSc1nnnn1-c1ccccc1	6%	-13	9	60	1.6
Cc1ccn2c(=O)nc(SCC(=O)c3ccc(Cl)cc3)nc2c1	.	.	.	-6	0.1
Cc1ccc(CCNS(=O)(=O)c2cc(Br)cnc2N)cc1	.	.	.	9	-0.6
CCC(=Nc1ccccc1NC(C)=O)c1c(O)n(C)c(=O)n(C)c1=O	7%	5	4	4	0.6
CCc1ccc(-n2c(SCC(=O)Nc3cc(C)[nH]n3)nc3[nH]ncc3c2=O)cc1	-3%	-40	7	-4	-1.3
COC(=O)c1ccc(S(=O)(=O)c2ccc(Cl)cc2)c(N)c1	.	.	.	-1	-7.5
O=C(CN(c1ccc(F)cc1)S(=O)(=O)c1ccc2c(c1)OCCO2)NCc1ccncc1	-2%	-39	1	-2	0.9
CCC(C)NC(=O)N[C@@H](CCSC)C(=O)O (some centres not stated)	-2%	-32	7	0	-1.4
O=C(NCC1CCCCC1)c1cccc(-c2ccc(O)cc2)c1	.	.	.	50	8.4
COc1ccccc1-n1cn[nH]c1=S	7%	.	.	-5	-2.9
O=C(Nc1ccccn1)c1ccc([N+](=O)[O-])cc1Cl	-1%	-34	-5	5	-0.5
CN1CCC(N(C)C(=S)Nc2ccc(SC(F)F)cc2)CC1	30%	-25	-20	3	-0.1
CC(=O)Nc1ccc(NC(=O)CSc2ccc(-c3ccco3)nn2)cc1	0%	.	-1	0	-1.9
Cc1cc2c3c([nH]c2cc1S(=O)(=O)NCc1ccc(CN2CCCCCC2)o1)CCCC3=O	.	.	.	4	-0.1
CC1(C)CCCC(C)(C)N1CC(O)COCCOc1ccc(Br)cc1 (configuration not stated)	4%	-5	-10	-3	-0.3
Cc1ccc(/C=C2\SC(=S)N(CC(=O)Nc3ncc(Cc4ccccc4Cl)s3)C2=O)cc1	.	-32	4	3	.
O=C1CCCN1CCC1CCN(C2CC(=O)N(c3ccc(F)cc3)C2=O)CC1 (configuration not stated)	-12%	-21	-3	-5	1.9
COCc1cc(C)nc(N2CCN(Cc3ccccc3)CC2)c1C#N	-2%	-9	-1	-1	-1.2
CN1CCN(S(=O)(=O)c2cccc(C(=O)NCCC3=CCCCC3)c2)CC1	.	.	.	-3	1.7
N#Cc1c(N2CCSCC2)nsc1-c1ccccc1Cl	.	.	.	9	0.9
CCc1nnc(NC(=O)c2ccc(COc3ccccc3Cl)o2)s1	.	.	.	1	1.6
O=c1c2ccccc2nc(/C=C/c2ccccc2F)n1-c1ccccc1O	.	.	.	7	3.8
CCOC(=O)c1cc(NC(=O)c2ccco2)ccc1N1CCOCC1	1%	.	-4	-2	-4.0
O=C1C2C3C=CC(C4CC34)C2C(=O)N1c1cc(Cl)ccn1 (configuration not stated)	4%	.	.	-10	-2.2
Cc1nn(CCC#N)c(N)c1C1(O)C(=O)Nc2c(Cl)cc(Cl)cc21 (configuration not stated)	7%	.	.	-3	4.1
COc1ccc2cc(C(=O)N(C)Cc3ccccc3)[nH]c2c1	.	.	.	-5	-3.3
COCCN(C(=O)C(=O)NC1CCCC1)C(C(=O)NC1CCCC1)c1ccccc1F (configuration not stated)	-6%	.	-1	-3	-1.4
O=C(NN=C1CCN(Cc2ccccc2)CC1)c1ccccc1	-10%	-18	-3	17	3.8
CCN(CC)CCN(C)Cc1ccc(Br)cc1	2%	-19	-7	5	-4.8
CS(=O)(=O)c1ccccc1-c1nnc(-c2ccc(Cl)cc2)o1	-8%	.	6	-1	-1.2
COc1ccc(/C=N/OCC(=O)N(Cc2ccccc2)c2ccccc2C(=O)O)cc1	-2%	-25	5	1	3.4
COC(=O)c1cnn(-c2ccccc2)c1/C=N/NC(=S)Nc1ccc(Cl)cc1	5%	.	.	.	-2.4
Cc1ccc(S(=O)(=O)CCC(=O)OCC(=O)N2CCc3ccccc32)cc1	.	.	.	-5	0.5
O=C(Nc1ccc2c(c1)C(=O)OC2)c1ccccc1Cl	.	.	.	-1	-0.9
Cc1nc(N2CCOCC2)sc1C=O	-3%	.	-3	3	1.5
COc1ccc(C2SCC(=O)N2c2ccc(C)cc2)cc1 (configuration not stated)	.	.	.	-3	1.4
Cc1ccc(OCCNC(=O)c2ccccc2F)cc1	.	.	.	7	2.1
Cc1ccc(/C=N/NC(=O)CSc2nnc(-c3ccc(Cl)cc3)n2-c2ccc(Cl)cc2)o1	.	-7	2	-4	2.8
OCCC1CN(Cc2ccc(-c3ccco3)cc2)CCN1Cc1ccsc1 (configuration not stated)	-7%	.	-9	-6	1.5
CN(C)S(=O)(=O)c1ccc2c(c1)c(=O)c(C(=O)NCCCN1CCCCCC1)cn2C	0%	-16	7	-1	-3.4	Arbovirus anti repeat=1
CSc1nc(N)nc(SCC(=O)Nc2cccc(F)c2)c1C#N	10%	-29	5	3	0.0
Cc1ccc(C)c(NC(=O)CSc2nnc(-c3n[nH]c4ccccc34)o2)c1	4%	-28	-5	16	2.0
CC1CN(C2CCCCC2)c2nc3c(c(=O)[nH]c(=O)n3C)n2C1 (configuration not stated)	11%	20	2	.	8.2
CC(C)(CC(=O)O)CC(=O)N1CCN(c2cc(C(F)(F)F)nc3ccccc23)CC1	.	.	.	0	-1.5
O=C(Nc1ccon1)c1csc2c1CCCC2	6%	-16	-8	2	5.7
O=C(Nc1ccncc1)c1ccc2c(c1)OCCO2	-10%	-7	3	-12	0.1	Arbovirus anti repeat=3
CCOc1ccccc1N(CC(=O)Nc1cc(OC)ccc1OC)S(=O)(=O)c1ccccc1	.	.	.	0	4.0
COc1cccc(NC(=O)CCCn2c(=O)[nH]c3ccccc3c2=O)c1	-9%	-9	1	-10	-1.3

Carrying on.
SMILES	Mtb growth	YopH inh	Arbovirus anti	Mtb bLac sens	RecA splice inh	others
Cc1ccccc1CSCCNC(=O)c1ccccc1	-1%	10	-2	5	2.6
COc1ccc(-c2c(C)nn3c(N4CCC(C(=O)N5CCCCC5)CC4)cc(C)nc23)cc1OC	3%	.	.	4	3.4
CC(C)COC(=O)n1c(SCC(N)=O)nc2ccccc21	-1%	.	.	2	0.5
CCc1nnc(NC(=O)c2cccc(S(=O)(=O)N3CC(c4ccccc4)CC3=O)c2)s1 (configuration not stated)	-7%	-29	25	-8	1.2
COC(=O)c1sc(N)c(C(=O)OC)c1COC(=O)c1c(C)noc1C	-12%	-40	-21	-6	3.2
Cc1occc1-c1nnc(SCC(=O)Nc2nc(C(C)(C)C)cs2)o1	1%	3	24	0	5.9
Cc1cc(C#N)c(SCC(N)=O)nc1-c1ccc(F)cc1	-1%	.	8	-10	-0.8
CCOc1ccc(N(C(C)=O)C2C=CS(=O)(=O)C2)cc1 (configuration not stated)	-12%	-36	0	4	.
CN(C)C(CNC(=O)CCOc1ccccc1)c1ccco1 (configuration not stated)	7%	.	4	-4	-6.3
NC(=O)c1ccc(NC(=O)CN2CCN(Cc3ccccc3)CC2)cc1	.	.	.	-8	-0.5
Cc1cc(=O)oc2cc(OC(=O)c3nn(C(C)C)c(=O)c4ccccc34)ccc12	?	-25	-6	74	-7.8
COc1ccc(-c2nnc3sc(C4CCCCC4)nn23)cc1OC	3%	-36	1	75	-1.6
O=C(NCCc1nc2ccccc2[nH]1)c1ccc(F)cc1	-6%	-27	-22	-6	-1.7
COCCn1c(SCC(=O)OC(C)C)nnc1-c1ccccc1	-9%	-18	-4	-3	0.2
Cc1cccc(NC(=O)Cn2nnc(-c3ccc(CN4CCCC4)cc3)n2)c1C	-15%	-40	-11	-6	0.2
COc1ccc(/C(O)=C2/C(=O)C(=O)N(c3ncccn3)C2c2ccc(OC)cc2)cc1 (configuration not stated)	7%	-13	14	-4	.
CN1CCC(=NNC(=O)C(=O)Nc2ccccc2F)CC1	?	.	3	0	-3.2
Cc1nc2sccn2c(=O)c1S(=O)(=O)Nc1ccc(N2CCN(S(C)(=O)=O)CC2)cc1	.	.	.	7	2.7
CN1C(=O)C(C)(C)c2cc(S(=O)(=O)N3CCCC(C(=O)NCc4ccc(Cl)cc4)C3)ccc21 (configuration not stated)	.	.	.	-4	-1.1
COc1ccc(S(=O)(=O)N2CCOCC2)cc1OC	0%	-15	13	-5	-1.8
CN(C)S(=O)(=O)c1ccc(Nc2ccc(-c3ccc4c(c3)OCCO4)nn2)cc1	0%	21	2	4	.
c1ccc2oc(-c3csc(NCC4CCCO4)n3)cc2c1 (configuration not stated)	-1%	.	4	11	1.5

Structures above that contain a Cl atom (13):
SMILES	Mtb growth	YopH inh	Arbovirus anti	Mtb bLac sens	RecA splice inh	others
Cc1ccn2c(=O)nc(SCC(=O)c3ccc(Cl)cc3)nc2c1	.	.	.	-6	0.1
COC(=O)c1ccc(S(=O)(=O)c2ccc(Cl)cc2)c(N)c1	.	.	.	-1	-7.5
O=C(Nc1ccccn1)c1ccc([N+](=O)[O-])cc1Cl	-1%	-34	-5	5	-0.5
Cc1ccc(/C=C2\SC(=S)N(CC(=O)Nc3ncc(Cc4ccccc4Cl)s3)C2=O)cc1	.	-32	4	3	.
N#Cc1c(N2CCSCC2)nsc1-c1ccccc1Cl	.	.	.	9	0.9
CCc1nnc(NC(=O)c2ccc(COc3ccccc3Cl)o2)s1	.	.	.	1	1.6
O=C1C2C3C=CC(C4CC34)C2C(=O)N1c1cc(Cl)ccn1 (configuration not stated)	4%	.	.	-10	-2.2
Cc1nn(CCC#N)c(N)c1C1(O)C(=O)Nc2c(Cl)cc(Cl)cc21 (configuration not stated)	7%	.	.	-3	4.1
CS(=O)(=O)c1ccccc1-c1nnc(-c2ccc(Cl)cc2)o1	-8%	.	6	-1	-1.2
COC(=O)c1cnn(-c2ccccc2)c1/C=N/NC(=S)Nc1ccc(Cl)cc1	5%	.	.	.	-2.4
O=C(Nc1ccc2c(c1)C(=O)OC2)c1ccccc1Cl	.	.	.	-1	-0.9
Cc1ccc(/C=N/NC(=O)CSc2nnc(-c3ccc(Cl)cc3)n2-c2ccc(Cl)cc2)o1	.	-7	2	-4	2.8
CN1C(=O)C(C)(C)c2cc(S(=O)(=O)N3CCCC(C(=O)NCc4ccc(Cl)cc4)C3)ccc21 (configuration not stated)	.	.	.	-4	-1.1
